Source: PubChem BioAssay (National Center for Advancing Translational Sciences (NCATS))
2A firefly: Primary qHTS Assay for Foot and Mouth Disease Virus Antivirals against NCGC Sytravon and CBC Compound Libraries: Firefly Luciferase Signal | hit rate 0.23% among 120,000 | HEK cells with a luciferase reporter of 2A StopGo recoding | Potency, µM (top dose mostly 57.5 µM), for the others: at the top dose signal change, negative = less light | AID 1745856, 2022; active = well fitted falling curve with a large enough effect; inconclusive = small, poorly fitted or top-dose-only effect; inactive = no such curve, though single readings can be large or run the other way; note: nearly all actives have a fitted effect of over 60% in size; overnight with compound
StopGo RLuc: Primary qHTS Assay for Foot and Mouth Disease Virus Antivirals against NCGC Sytravon and CBC Compound Libraries: Renilla Luciferase Signal | Potency, µM (doses to about 57.5 µM), for inactives: top-dose signal change, negative = less light | hit rate 0.32% among 120,000 | HEK cells with a luciferase reporter of 2A StopGo recoding | AID 1745857, 2022; active means well fitted falling curve with a large enough effect; inconclusive means small, poorly fitted or top-dose-only effect; inactive means no such curve, though single readings can be large or run the other way; note: nearly all actives have a fitted effect of over 55% in size; overnight with compound
* = called active by the depositor; ? = inconclusive; & = joins results of further samples; [ ] = dose if it differs, or a comment. % is set by controls: 0 for no effect and ±100 for the full control effect; potency is the fitted concentration of half-maximal effect. The order is random (roughly 0.53% active in at least one column).

SMILES	2A firefly	StopGo RLuc
COc1cccc(-n2c(=O)c3sc4ccccc4c3n(CC(=O)Nc3ccccc3C)c2=O)c1	-12%	-21%
Cc1ccccc1C1CCCN1C(=O)c1cc(C(C)C)on1 (stereo not given)	16%	11%
COc1ccccc1N1CCN(C(=O)CSc2nc(-c3ccc(C(C)C)cc3)no2)CC1	80%[activator]	3%
O=c1c2cc(Cl)ccc2ncn1Cc1coc(-c2cccs2)n1	-7%	-7%
O=C(O)c1cc(NCc2ccccc2OCc2ccccc2)ccc1N1CCOCC1	6%	35%[activator]
COc1cccc(-c2nc(SCc3cccc(Br)c3)n3[nH]c(=O)cc3n2)c1	-2%	4%
CCOc1ccc(NS(=O)(=O)c2ccc3[nH]cc(C(=O)N4CCCCCC4)c(=O)c3c2)cc1	-10%	1%
Cc1ccc(-c2nc(-c3ccc(Br)o3)no2)cc1	174%[activator]	2%
COc1cc(OC)c(N(C)C(=O)c2sc3nc4n(c(=O)c3c2C)CCCCC4)cc1Cl	-4%	-4%
CN(C(=O)Cn1c(=O)n(CCCS(=O)(=O)C2CCCCC2)c(=O)c2ccccc21)c1ccccc1	-13%	-6%

Further compounds follow.
SMILES	2A firefly	StopGo RLuc
CCOC(=O)c1c(C)[nH]c(C)c1S(=O)(=O)N1CCCC(C(=O)Nc2cccc(CC)c2)C1 (stereo not given)	-10%	59%[activator]
COc1ccc(NC(=O)CSc2nc3ccccc3o2)c(OC)c1	29%	-5%
COc1ccc(NC(=O)COc2ccc(-c3nn(C)c(=O)c4ccccc34)cc2)cc1	5%&9%	0%&8%
CN(C)c1ccc(NC(=O)/C=C/c2ccccc2)cc1	150%[activator]	22%
CC(C)Sc1nc2c(c(=O)[nH]c(=O)n2C)n1Cc1ccccc1Cl	-6%	-12%
O=c1n(CCCN2CCN(c3cccc(Cl)c3)CC2)nc2ccccn12	-18%	-12%
CCOc1ccccc1/C=N/O	-3%	-12%
O=S(=O)(Nc1cccc(-c2ccc(N3CCOCC3)nn2)c1)c1ccc(F)cc1F	120%[activator]	1%
COCCCNC(=O)NC(CCC(C)C)c1c(-n2cccc2)sc2c1CCN(C)C2 (stereo not given)	-12%	2%
Cc1ccc(OC(=O)C(c2ccccc2)c2ccccc2)cc1	13%	18%

Next section.
SMILES	2A firefly	StopGo RLuc
COc1ccc(C2=NC3(CCCCC3)N(CC(=O)Nc3ccc(C(C)C)cc3)C2=O)cc1	11%	0%
COc1ccccc1NC(=O)c1cc(S(=O)(=O)NCCc2ccccc2)ccc1F	-7%	225%[activator]
O=C(O)C(Cc1ccccc1)C(C(=O)O)c1ccccc1 (stereo not given)	-1%	-4%
CC(C)NC(=O)C(=O)Nc1cccc(C(=O)c2nccn2C)c1	48%[activator]	-6%
O=[N+]([O-])c1cccc(C#Cc2ccccc2)c1	69%[activator]	-8%
O=C(NCCOc1ccccc1F)c1ccc2ccccc2n1	-59%	21%
C/C=C(/C)C(=O)OC1Cc2cc3ccc(=O)oc3cc2OC1(C)C (stereo not given)	?	?
Cc1nc(Nc2ccccc2C(F)(F)F)sc1C(=O)N(C)C	93%[activator]	5%
CC(Nc1ccc(Cl)cc1)C(=O)NC(N)=O (stereo not given)	2%	11%
CC(C)(CNC(=O)c1cc2c(s1)CCCCC2)N1CCOCC1	15%	-8%

Other records follow:
SMILES	2A firefly	StopGo RLuc
O=C(CN1CCCC1)NC1CCCCC1	-12%	-5%
Cc1cccc(NC(=O)C2CCN(c3nc4ccccc4o3)CC2)c1C	-22%	?
COc1cc(C2Oc3nc(SC)nnc3-c3ccccc3N2C(C)=O)cc(Cl)c1OC (stereo not given)	-10%&-10%	21%&-4%
O=C(COc1ncnc2sc3c(c12)CCC3)Nc1ccc(S(=O)(=O)N2CCCC2)cc1	1%	12%
CC(NC(=O)C1CCN(c2ccc(C#N)cn2)CC1)c1ccc(F)c(F)c1 (stereo not given)	-18%	-17%
CCCCOCCCNC(=O)c1cccc(C#N)c1	2%	10%
Cn1cc(CN(C(=O)Nc2ccc(Cl)c(Cl)c2)C2CCCCC2)c2ccccc21	30%	-1%
O=C(NCCC1=CCCCC1)c1ccc2c(=O)n3nc(Nc4ccccc4)sc3nc2c1	-11%	-3%
ClC(/C=N/N1CCN(Cc2ccccc2)CC1)=C/c1ccccc1	101%[activator]	-2%
CCCc1ccc(S(=O)(=O)NCCc2cccc3cccnc23)cc1	-12%	96%[activator]

Remaining list, next part:
SMILES	2A firefly	StopGo RLuc
Cc1cc(C)c2c(=O)cc(C(=O)Nc3ccc(S(=O)(=O)N(C)Cc4ccccc4)cc3)oc2c1	3%&-18%	3%&1%
CCOc1ccccc1CN(CCc1ccc2c(c1)OCO2)Cc1cc(OC)c(OC)cc1OC	?	-3%
CCOC(=O)Nc1ccccc1	9%	6%
C=CCN1C(C(=O)OC)CN(Cc2cn(Cc3ccc(OC)cc3)nn2)CCS1(=O)=O (stereo not given)	-3%	-8%
Cc1ccc(NC(=O)CCc2nc3cccnc3n2-c2ccccc2)cc1Cl	-10%	-2%
Cc1ccc(NS(=O)(=O)c2cc([N+](=O)[O-])ccc2N/N=C/c2ccc(C#N)cc2)c(C)c1	?	?
COc1cc(C(=O)Nc2cccc(-c3nc4cc(C)ccc4o3)c2C)cc(OC)c1OC	39%[activator]	3%
Cc1nnc(NC(=O)c2cc(=O)c3cc(Cl)cc(Cl)c3o2)s1	11%	1%
Cc1cccc(C(C)C)c1NC(=O)Cn1nc(C(=O)O)c2ccccc2c1=O	-4%	-6%
Cc1cccc(OCC(=O)Nc2cccc(C(=O)Nc3ccccc3C(=O)O)c2)c1C	70%[activator]	16%

The results go on.
SMILES	2A firefly	StopGo RLuc
CC(C)(C)c1ccc(C(=O)NC2(C(F)(F)F)NC(=O)N(CCc3ccccc3)C2=O)cc1 (stereo not given)	-12%	-14%
CCCc1cc(=O)oc2cc(OC(C)C(=O)NCCCn3ccnc3)ccc12 (stereo not given)	-19%	-13%
COc1ccc(Br)cc1/C=N/O	11%	11%
Cc1cc(=O)oc2cc(OS(=O)(=O)c3ccc(Cl)cc3)ccc12	42%[activator]	24%
COc1ccccc1NC(=O)COc1ccc2c(=O)c(-c3ccccc3)c(C)oc2c1	-2%	-2%
CCCN(CCC)C(=O)Cc1c(C)[nH]c2ccc(C)cc12	-14%	-7%
CCOc1cccc(NC(=O)c2cccc(C)c2)c1	99%[activator]	25%
N#Cc1ccc(CNc2cc(Cl)ccc2Cl)cc1	30%	30%[activator]
CNC(=O)c1ccc(NS(=O)(=O)c2ccc(NC(C)=O)cc2)cc1	6%	3%
c1ccc2cc(Nc3ccc4ccccc4c3)ccc2c1	0%	5%

Remaining list, next part:
SMILES	2A firefly	StopGo RLuc
CC(C)CC(=O)NCCC1CCN(C(=O)NC2CCCCC2)CC1	7%	-1%
CCOc1ccccc1CNC(=O)CCCn1c(=O)c2cccn2c2ccc(F)cc21	-18%	0%
CCOc1ccc(CCNC(=O)CCc2c(C)nc3c(-c4ccccc4)c(C)nn3c2C)cc1OCC	-18%	-12%
O=C(Cc1ccc(Cl)cc1)Nc1nnc2n1CCS2	23%	21%
Cc1ccc2c(CNCc3ccc(C)o3)c(C(=O)O)n(Cc3ccccc3C)c2c1	-11%	24%
CCc1cccc(CC)c1NC(=O)Cn1nnc2sc(-c3ccccc3)cc2c1=O	-11%	3%
COC(=O)c1ccc(CNC(=O)COC(=O)c2cc3ccccc3[nH]2)cc1	4%	-2%
CC(C)CNS(=O)(=O)/C=C/c1ccc(F)cc1CNC(=O)OC(C)(C)C	-2%	305%[activator]
COc1ccc(-n2nnc(C(=O)NCc3cccs3)c2N)cc1OC	10%	1%
O=C(/C=C/c1cccs1)NC(=S)NNC(=O)c1ccccc1	20%	-14%

The list continues.
SMILES	2A firefly	StopGo RLuc
Cc1cccc(C)c1NC(=O)CCS(=O)(=O)c1cccc2nonc12	-18%	0%
Cc1cc(/C=C(/C#N)c2nc3ccccc3[nH]2)cc(C)c1OCc1ccccn1	0%	-29%
CN(CC(=O)Nc1cccc(F)c1)C(=O)Cc1n[nH]c(=O)c2ccccc12	16%	1%
Cc1ccc(NC(=O)Cn2nc(-c3ccco3)ccc2=O)cc1C	-4%	-3%
CCOc1ccc(N2CC(NC(=O)C(CC)CC)CC2=O)cc1 (stereo not given)	-6%	2%
Cc1ccc(NS(=O)(=O)c2ccc(C(=O)NCC(c3ccccc3)N(C)C)cc2)cc1 (stereo not given)	21%	37%[activator]
COc1cccc(NC(=O)Nc2nnc(CC(=O)NCc3ccccc3)s2)c1	5%	-10%
Cn1c(=O)c2c(nc(N3CCCC3)n2Cc2cccc(Br)c2)n(C)c1=O	0%	-11%
O=c1c2sccc2n(Cc2cc(=O)n3ccccc3n2)c(=O)n1-c1cccc(C(F)(F)F)c1	24%	-5%
Cn1cc(C2Nc3ccccc3C(=O)N2c2ccccc2)c(=O)n(C)c1=O (stereo not given)	100%[activator]	8%

The listing continues.
SMILES	2A firefly	StopGo RLuc
CC(=O)c1ccc(NC(=O)c2ccc(C)cc2Cl)cc1	198%[activator]	7%
CC(C)Oc1c(I)cc(I)cc1/C=C(\C#N)c1nc2ccccc2[nH]1	18%	-31%
CCc1ccc(C2CC(=O)c3c([nH]c(C(=O)OC4CCCCCC4)c3C)C2)cc1 (stereo not given)	-5%	11%
CCOC(=O)CSC1=C(C#N)C(c2ccc(O)c(OC)c2)CC(=O)N1 (stereo not given)	12%	7%
CC(OC(=O)c1ccc(-n2cnnn2)cc1)C(=O)N(C)c1ccccc1 (stereo not given)	4%	69%[activator]
Cc1cccc(N2CCN(CC(=O)NC(=O)NCC(F)(F)F)CC2)c1C	-5%	-11%
COc1ccc(S(=O)(=O)N2CCN(C(=O)NC3CCCC3)CC2)cc1OC	4%	1%
COc1cccc(-c2n[nH]c3c2C(c2ccccn2)N(C)C3=O)c1 (stereo not given)	3%	7%
Cc1occc(=O)c1OCc1noc(C(=O)NCc2ccc(Cl)cc2)n1	9%	-2%
CCCCCCCCCCC(=O)Nc1c(CC)cccc1CC	-1%	-3%[1.06 µM]

Next part:
SMILES	2A firefly	StopGo RLuc
CC1CN(C(=O)Nc2cccc(CN3CCOC3=O)c2)CCO1 (stereo not given)	-4%	10%
CCOC(=O)c1ccc(NC(=O)Cn2cc(C(=O)c3ccc(Cl)cc3)c(=O)c3ccc(C)nc32)cc1	48%[activator]	40%[activator]
CCc1ccc(CNC(=O)c2cc(=O)[nH]c3ccc(S(=O)(=O)N4CCCCC4)cc23)cc1	1%	1%
CN(C)c1ccc(C(CNC(=O)Cc2ccc(Cl)cc2)N2CCOCC2)cc1 (stereo not given)	-2%	-7%
O=S(=O)(c1ccc(F)cc1)N1CCN(c2ccc(NCc3ccccc3)nn2)CC1	12%	31%[activator]
CCn1cnc2c1c(=O)n(CC(=O)Nc1ccc(OC(F)(F)F)cc1)c(=O)n2Cc1ccccc1	4%	-5%
Cc1ccccc1-c1nc(SCC(=O)NCc2ccco2)c2c(=O)n(C)c(=O)n(C)c2n1	-14%	-10%
Cc1ccc(NC(=O)CCC(=O)N2Cc3ccccc3Oc3ncccc32)c(C)c1	-3%	-4%
O=C(NC1CCCC1)c1cc(Cl)nc2ccccc12	45%[activator]	-1%
CCCN(CCC)CCc1c[nH]c2ccccc12	23%[22.9 µM]	-4%[114 µM]

Next section.
SMILES	2A firefly	StopGo RLuc
CSc1cccc(NC(=O)C2CCCC2)c1	0%	0%
Cc1cccc(OCCn2c(Cl)nc3c2c(=O)n(C)c(=O)n3C)c1	7%	3%
O=C1CC[C@@H](C(=O)O)N1	-15%	-14%
Cc1cccc(N(C)C(=O)c2cc(S(=O)(=O)N3CCCCC3)c[nH]2)c1	-16%	-4%
CCOCCn1c(CN(Cc2ccccc2)Cc2ccccc2)nc2c1c(=O)[nH]c(=O)n2C	-12%	-17%
COc1ccccc1CN1CCN(C(=O)COc2cccc(C)c2)CC1	4%	-1%
Cc1ccc(Cl)cc1-n1c(=O)c2sc3ccccc3c2n(Cc2ccccc2)c1=O	-11%	-5%
CCOc1ccc(Cn2c(CNS(=O)(=O)c3c(C)cc(C)cc3C)nc3cccnc32)cc1	-6%	230%[activator]
COc1ccc(CC(=O)N2CC(=O)Nc3ccc(F)cc3C2c2ccccc2)cc1 (stereo not given)	-18%	-4%
Cc1cc(C)cc(-n2ccnc2SCC(=O)Nc2ccc(C)c(Cl)c2)c1	3%	31%[activator]

Carrying on.
SMILES	2A firefly	StopGo RLuc
O=C(NCCc1ccccc1)c1nn(-c2ccccc2F)nc1CO	0%	-9%
COc1cc(-c2oc3ccc(C)cc3c(=O)c2O)cc(OC)c1OC	2%	-13%
COC(=O)c1ccc2c(=O)n3nc(Nc4ccc(F)cc4F)sc3nc2c1	9%	8%
Cc1cccc(C)c1NC(=O)c1cc(S(=O)(=O)N2CCc3ccccc3C2)ccc1F	4%	45%[activator]

Complete entries from above. Order of values: 2A firefly, StopGo RLuc
COC(=O)c1ccc2c(=O)n3nc(Nc4ccc(F)cc4F)sc3nc2c1 in the list: 9%, 8%
COc1cc(-c2oc3ccc(C)cc3c(=O)c2O)cc(OC)c1OC in the list: 2%, -13%

For reference, two of the compounds above:
SMILES	2A firefly	StopGo RLuc
COc1cc(-c2oc3ccc(C)cc3c(=O)c2O)cc(OC)c1OC	2%	-13%
COC(=O)c1ccc2c(=O)n3nc(Nc4ccc(F)cc4F)sc3nc2c1	9%	8%
